Cruzain Triton – cruzain (T. cruzi) inhibition with detergent. P25779. purified cruzain, Z-FR-AMC fluorescence, 0.01% Triton. Potency, µM, without a hit: max response, negative = inhibition, usual class: inhibitors. hit rate 0.43% among 200,000;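 note: plate controls were neutral wells for no effect and buffer without enzyme for full effect; nearly all actives have a fitted effect of over 40% in size; top concentration of the series not given in the record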
Target sequence (P25779 123-467 limits assumed): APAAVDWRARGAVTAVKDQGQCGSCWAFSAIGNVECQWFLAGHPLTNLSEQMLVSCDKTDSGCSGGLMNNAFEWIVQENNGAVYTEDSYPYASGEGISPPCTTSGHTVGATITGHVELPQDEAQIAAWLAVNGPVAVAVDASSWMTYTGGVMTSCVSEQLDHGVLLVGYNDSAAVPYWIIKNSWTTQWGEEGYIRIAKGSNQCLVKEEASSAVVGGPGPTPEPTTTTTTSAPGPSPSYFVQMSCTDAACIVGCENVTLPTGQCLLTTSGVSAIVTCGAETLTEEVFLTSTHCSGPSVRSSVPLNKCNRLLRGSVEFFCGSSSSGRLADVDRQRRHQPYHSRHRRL
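Read-out: AMC fluorescence (360 nm excitation, 450 nm emission), four reads over 2 min, first-to-third difference used. Conditions: cruzain 1.5 nM, Z-FR-AMC 2 uM, pH 5.5 acetate, 5 mM DTT, 0.01% Triton X-100.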
SARS PLpro yeast – inhibitors of SARS-CoV papain-like protease in yeast. S. cerevisiae expressing SARS-CoV PLpro, growth rescue; control for the full effect not named in the record. Potency, µM (doses to about 32.9 µM), inactives show at the highest dose activity, positive = growth rescue. hit rate 0.19% among 330,000; active means well fitted rising curve with a large enough effect; inconclusive means small, poorly fitted or top-dose-only effect; inactive means no such curve, though single readings can be large or run the other way; note: 0% is about no effect; nearly all actives have a fitted effect of over 55% in size; growth read by luminescence after 48 h
RE007 growth inh – less growth of the S. pombe RE007 Vpr strain | S. pombe RE007 Vpr strain, BacTiter-Glo ATP luminescence, 24 h; control for the full effect not named in the record | hit rate 0.21% among 360,000 | Potency, µM (top dose mostly 92.2 µM), for the others: at the top dose activity change, negative = less growth; active = well fitted falling curve with a large enough effect; inconclusive = small, poorly fitted or top-dose-only effect; inactive = no such curve, though single readings can be large or run the other way;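 note: % is set by controls: 0 for no effect and ±100 for the full control effect; nearly all actives have a fitted effect of over 50% in size; the assay follows cell death caused by Vpr and the record does not say whether a fall means rescue or toxicity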
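Fission yeast strain RE007, carrying one chromosomally integrated HIV-1 vpr copy, was seeded at OD 0.01 in PMG+AL medium with 23 nL pinned compound. After 24 h at 30 °C and 99% humidity, viability was read by BacTiter-Glo luminescence.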
Marburg entry inh – inhibitors of Marburg virus binding or cell entry. AID 540276. Potency, µM (doses to about 37.8 µM), for the others: at the highest dose activity change, negative = inhibition, most hits filed as inhibitors. hit rate 1.8% among 300,000. Marburg virus pseudotyped entry inhibition, cell reporter; control for the full effect not named in the record; about a third of the inactives were read at about 46 µM; active = well fitted inhibition curve with a large enough effect; inconclusive = small, poorly fitted or top-dose-only effect, or effect the other way; inactive = flat fitted curve, though single readings scatter; tested in HEK293 cells; about a fifth of its hits are not listed in these tables; note: % is set by controls: 0 for no effect and ±100 for the full control effect; luciferase read-out
Cruzain inh noDet – blocks cruzain activity in detergent-free assay | purified cruzain, Z-FR-AMC fluorescence, no detergent | hit rate 2.3% among 200,000 | Potency, µM, for the others: max response, negative = inhibition, usual class: inhibitors | P25779;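 note: plate controls were enzyme without inhibitor for no effect and buffer without enzyme for full effect; nearly all actives have a fitted effect of over 40% in size; top concentration of the series not given in the record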
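Detergent-free condition (0.00005% Triton X-100) in acetate buffer pH 5.5 with DTT. 1.5 nM enzyme and compound were pre-mixed 15 min, then 2 uM Z-FR-AMC substrate added; reaction progress from fluorescence change between first and third reads (60 s).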
Lassa entry inh – Lassa virus entry inhibition | hit rate 1.2% among 300,000 | AID 540256 | Lassa virus pseudotype entry inhibition, cell reporter; control for the full effect not named in the record | Potency, µM (highest dose often 37.9 µM), without a hit: at the highest dose activity change, negative = inhibition, most hits filed as inhibitors; active means well fitted inhibition curve with a large enough effect; inconclusive means small, poorly fitted or top-dose-only effect, or effect the other way; inactive means flat fitted curve, though single readings scatter; tested in HEK293 cells; note: % is set by controls: 0 for no effect and ±100 for the full control effect; nearly all actives have a fitted effect of over 50% in size; luciferase read-out
2A StopGo – lowers the luciferase signal of an FMDV 2A StopGo reporter; human cells with a luciferase reporter of 2A StopGo recoding; control for the full effect not named in the record; Potency, µM (series often up to 57.9 µM), for inactives: at the highest dose signal change, negative = less light; hit rate 1.2% among 410,000; active = well fitted falling curve with a large enough effect; inconclusive = small, poorly fitted or top-dose-only effect; inactive = no such curve, though single readings can be large or run the other way; tested in HEK293T cells; note: % is set by controls: 0 for no effect and ±100 for the full control effect; nearly all actives have a fitted effect of over 45% in size; luciferase light after 4 h
NS1 function inh – blocks influenza NS1 protein function | S. cerevisiae slowed by influenza A NS1, growth recovery by OD600 | Potency, µM (top dose mostly 46.1 µM), inactives show at the highest dose activity, positive = more growth | hit rate 0.4% among 270,000; active means well fitted rising curve with a large enough effect; inconclusive means small, poorly fitted or top-dose-only effect; inactive means no such curve, though single readings can be large or run the other way; note: nearly all actives have a fitted effect of over 50% in size
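Read-out: OD600 growth recovery of NS1-expressing budding yeast. Cells grown overnight at 30C in -URA glucose medium, washed, resuspended and diluted 1:100 in 2% galactose assay medium, pH 6.0. Same strain lacking NS1 served as positive control.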
* = called active by the depositor; & = joins results of further samples; [ ] = dose if it differs, or a comment. Unless noted, calls come from the whole dose curve; as a rule, active = well fitted curve in the direction sought with a large enough effect; inconclusive = small, poorly fitted or top-dose-only effect, or another doubt; inactive = no such curve, though single readings can be large; an effect the other way counts as inactive or inconclusive. Potency is the fitted concentration of half-maximal effect.

Cc1ccccc1NC(=S)N(CCN(C)C)C(C)c1ccco1 (configuration not stated) was read as Cruzain Triton 2.2%, SARS PLpro yeast -8%, RE007 growth inh 9%, Marburg entry inh 0%, Cruzain inh noDet -1%, Lassa entry inh 17%, 2A StopGo 11% and NS1 function inh 6%.
Screening CC(=O)C1=C(O)C(=O)N(C2CCCCC2)C1c1ccccc1 (configuration not stated) returned Cruzain Triton -5.2%, SARS PLpro yeast 7%, RE007 growth inh 13%, Marburg entry inh 3%, Cruzain inh noDet -11%, Lassa entry inh 14%, 2A StopGo -11% and NS1 function inh 1%.
For CN(C)CCN1C(=O)C(O)=C(C(=O)c2cc3ccccc3o2)C1c1ccc(N(C)C)cc1 (configuration not stated) the results were Cruzain Triton -4.3%, SARS PLpro yeast -3%, RE007 growth inh 23%, Marburg entry inh inconclusive, Cruzain inh noDet -7%, Lassa entry inh 7%, 2A StopGo 9% and NS1 function inh -8%.
`O=C1CN(Cc2cc(=O)oc3cc4c(cc23)CCC4)CCN1` gave SARS PLpro yeast -11%, RE007 growth inh -4%, Marburg entry inh inconclusive, Lassa entry inh 12% and 2A StopGo -6%.
Cc1ccc(S(=O)(=O)N2CC=C(C(=O)NCc3ccc(F)cc3)CC2)cc1 was read as Cruzain Triton -5.6%, SARS PLpro yeast 16%, Marburg entry inh -40%, Cruzain inh noDet -6%, Lassa entry inh 8% and NS1 function inh -18%.
O=C(CCN1C(=O)/C(=C/C=C/c2ccccc2)SC1=S)Nc1nc2ccccc2s1 was read as Cruzain Triton -7.7%, SARS PLpro yeast 12%, RE007 growth inh 11%, Marburg entry inh 16%[46.1 µM], Cruzain inh noDet 7.9µM*, Lassa entry inh -4%, 2A StopGo 1% and NS1 function inh 2%.
O=C(CSc1ccccc1C(=O)O)NC12CC3CC(CC(C3)C1)C2 was read as SARS PLpro yeast 0%, RE007 growth inh 10%, 2A StopGo -17% and NS1 function inh 5%.
Cc1cc(NS(=O)(=O)c2ccc(NC(=O)NC(C)(C(F)(F)F)C(F)(F)F)cc2)no1 was read as Cruzain Triton -12%, SARS PLpro yeast -3%, RE007 growth inh 2%, Marburg entry inh 7%, Cruzain inh noDet 2%, Lassa entry inh -4%, 2A StopGo 10% and NS1 function inh 6%.
COc1ccc(OC)c(NC(=O)CSc2nnc(-c3cccnc3)s2)c1 was read as SARS PLpro yeast 0%, RE007 growth inh 13%, Marburg entry inh inconclusive, Lassa entry inh inconclusive and 2A StopGo 7%.
COc1cc(C=C2C(=O)c3ccccc3C2=O)ccc1O was read as SARS PLpro yeast -1%, RE007 growth inh -26%, 2A StopGo 18% and NS1 function inh -1%.
COc1ccccc1N1C(=O)NC(=O)/C(=C\c2cnn(-c3ccccc3)c2)C1=O was read as SARS PLpro yeast 0%, RE007 growth inh 11%, Marburg entry inh inconclusive, Lassa entry inh 5%[46.1 µM] and 2A StopGo inconclusive.
N/C(=N/OS(=O)(=O)c1ccc([N+](=O)[O-])cc1)c1ccncc1 was read as SARS PLpro yeast 2%, RE007 growth inh 0%, 2A StopGo -10% and NS1 function inh 2%.
For CCN(CC)c1ccc(C(=O)OCc2cc(=O)oc3cc(O)ccc23)cc1 the results were Cruzain Triton 6.1%, SARS PLpro yeast -10%, RE007 growth inh 10%, Marburg entry inh inconclusive, Cruzain inh noDet -26%, Lassa entry inh 15µM*, 2A StopGo inconclusive and NS1 function inh 11%.
`COC(=O)C1=C(Nc2cc(Cl)cc(Cl)c2)CSC1` gave SARS PLpro yeast 2%, RE007 growth inh 9%, Marburg entry inh -5%, Lassa entry inh -14%, 2A StopGo -5% and NS1 function inh 5%.
`CCc1nnc(NC(=O)CSc2nnc(Cc3cccn3C)n2CCOC)s1` gave Cruzain Triton -3.3%, SARS PLpro yeast 1%, RE007 growth inh -13%, Cruzain inh noDet 0%, 2A StopGo 3% and NS1 function inh inconclusive.

Sorted by length of the SMILES (largest number first): some entries from above.
Cc1cc(NS(=O)(=O)c2ccc(NC(=O)NC(C)(C(F)(F)F)C(F)(F)F)cc2)no1 was read as Cruzain Triton -12%, SARS PLpro yeast -3%, RE007 growth inh 2%, Marburg entry inh 7%, Cruzain inh noDet 2%, Lassa entry inh -4%, 2A StopGo 10% and NS1 function inh 6%.
O=C(CSc1ccccc1C(=O)O)NC12CC3CC(CC(C3)C1)C2 was read as SARS PLpro yeast 0%, RE007 growth inh 10%, 2A StopGo -17% and NS1 function inh 5%.
COc1cc(C=C2C(=O)c3ccccc3C2=O)ccc1O was read as SARS PLpro yeast -1%, RE007 growth inh -26%, 2A StopGo 18% and NS1 function inh -1%.

(listing goes on)
`C/C(Cl)=C\Cn1c(NCCCn2ccnc2)nc2c1c(=O)n(C)c(=O)n2C` gave Cruzain Triton 1.1%, SARS PLpro yeast 5%, RE007 growth inh 0%, Marburg entry inh 3%, Cruzain inh noDet 3%, Lassa entry inh 21%, 2A StopGo -19% and NS1 function inh 0%.
For CC(C)CNc1nc2c(c(=O)n(C)c(=O)n2C)n1Cc1cccc(Br)c1 the results were Cruzain Triton -1.0%, SARS PLpro yeast 2%, RE007 growth inh 4%, Marburg entry inh 4%&4%, Cruzain inh noDet 16%, Lassa entry inh -18%, 2A StopGo inconclusive and NS1 function inh -3%.
Screening COc1ccc(-c2cc(C(=O)NCc3cccs3)no2)cc1 returned SARS PLpro yeast 0%, RE007 growth inh -2%, 2A StopGo 87%[activator] and NS1 function inh 1%.
`Brc1ccccc1-n1ncc2c1ncn1nc(Cc3ccccc3)nc21` gave Cruzain Triton -5.4%, Marburg entry inh inconclusive, Cruzain inh noDet 0%, Lassa entry inh 16%[46.1 µM] and 2A StopGo 36%[activator].
`CC(C)C(NC(=O)C(C(C)C)N(C)C)C(=O)N(C)C(C(=O)N1CCCC1C(=O)N1CCCC1C(=O)NCc1ccccc1)C(C)C` (configuration not stated) gave RE007 growth inh 9%, Lassa entry inh inconclusive and 2A StopGo -13%.
`Cc1c(C(=O)N2CCCCC2)c(S(=O)(=O)Nc2cccc(Br)c2)c(C)n1C` gave SARS PLpro yeast 2%, RE007 growth inh -8%, Marburg entry inh inconclusive, Lassa entry inh inconclusive, 2A StopGo 69%[activator] and NS1 function inh -5%.
For O=C(N/N=C1\NC(=O)C(CO)(CO)S1)c1ccccc1 the results were SARS PLpro yeast 0%, RE007 growth inh -9%, Marburg entry inh 17%, Lassa entry inh -4%, 2A StopGo 3% and NS1 function inh 3%.
Screening C(=N\n1c2ccccc2c2ccccc21)/c1ccccc1 returned Cruzain Triton -6.1%, SARS PLpro yeast -1%, RE007 growth inh -3%, Marburg entry inh 12%, Cruzain inh noDet -11%, Lassa entry inh -4%, 2A StopGo -18% and NS1 function inh 4%.
Oc1ccc(-c2cn3c(n2)SCC3)cc1O was read as Cruzain Triton -2.6%, SARS PLpro yeast 6%, RE007 growth inh 2%, Marburg entry inh inconclusive, Cruzain inh noDet -1%, Lassa entry inh -10%, 2A StopGo 19% and NS1 function inh -3%.
Screening CCOC(=S)SCC(=O)N1CCc2cc(OC)c(OC)cc2C1C1C(=O)CC(C)(C)CC1=O (configuration not stated) returned Cruzain Triton 5.0%, SARS PLpro yeast inconclusive, RE007 growth inh 16%, Marburg entry inh 7%, Cruzain inh noDet inconclusive, Lassa entry inh 0%, 2A StopGo -15% and NS1 function inh 12%.
CCOc1ccc(C=O)cc1CN1CCCCC1 was read as Cruzain Triton 3.1%, SARS PLpro yeast -10%, RE007 growth inh 13%, Marburg entry inh -16%, Cruzain inh noDet 2%, Lassa entry inh inconclusive, 2A StopGo 0% and NS1 function inh 6%.
Screening CN(CC(=O)NCCc1ccccc1)S(=O)(=O)c1cccs1 returned Cruzain Triton 2.4%, SARS PLpro yeast 3%, RE007 growth inh -3%, Marburg entry inh 0%, Cruzain inh noDet -2%, Lassa entry inh 25%, 2A StopGo 15% and NS1 function inh 3%.
Screening O=[N+]([O-])c1cc(Cl)ccc1-c1nc(-c2ccncc2)no1 returned SARS PLpro yeast -1%, RE007 growth inh 1%, Marburg entry inh 28%[46.1 µM], Lassa entry inh 0%, 2A StopGo 37%[activator] and NS1 function inh 2%.
Cn1c(=O)c2c([nH]c(OCc3ccc(Cl)cc3Cl)[n+]2Cc2ccc(F)cc2)n(C)c1=O was read as SARS PLpro yeast 2%, RE007 growth inh 6%, 2A StopGo -46% and NS1 function inh 6%.
Screening O=[N+]([O-])c1ccc(NNC(=S)Nc2ccc(F)cc2)cc1 returned Cruzain Triton -12%, SARS PLpro yeast -62%, RE007 growth inh 16%, Marburg entry inh inconclusive, Cruzain inh noDet inconclusive, Lassa entry inh inconclusive, 2A StopGo 0% and NS1 function inh 3%.
O=C(O)C1CSC2(c3ccc4c(c3)OCCO4)CCC(=O)N12 (configuration not stated) was read as Cruzain Triton -6.6%, SARS PLpro yeast -4%, RE007 growth inh 6%, Marburg entry inh 1%, Cruzain inh noDet -5%, Lassa entry inh 24%, 2A StopGo -4% and NS1 function inh 1%.
Screening Cc1noc(NS(=O)(=O)c2ccc(NC(=O)c3ccc(N4C(=O)c5ccccc5C4=O)cc3)cc2)c1C returned SARS PLpro yeast 0%, RE007 growth inh 5%, Marburg entry inh 10%[46.1 µM], Lassa entry inh 23%, 2A StopGo -7% and NS1 function inh 3%.
Screening COc1ccc(-c2cn3nc(N4CCCC(C(=O)Nc5cccc(OC)c5)C4)sc3n2)cc1 (configuration not stated) returned Cruzain Triton -4.7%, Cruzain inh noDet -28%, Lassa entry inh -29%[46.1 µM] and 2A StopGo -26%.
For Cc1cc(-c2cccs2)c(C#N)c(=S)[nH]1 the results were SARS PLpro yeast 0%, RE007 growth inh 21%, 2A StopGo -10% and NS1 function inh 1%.
For CCN(c1cccc(C)c1)S(=O)(=O)c1nnc(NC(=O)C2CCCCC2)s1 the results were Cruzain Triton -4.0%, Cruzain inh noDet -6%, Lassa entry inh -3%[46.1 µM] and 2A StopGo -11%.
For O=C(CCNC(=O)c1ccccc1Cl)NN1C(=O)NC2(CCCCC2)C1=O the results were SARS PLpro yeast 0%, RE007 growth inh 0%, Marburg entry inh 14%, Lassa entry inh inconclusive and 2A StopGo -1%.

From PubChem
